High-throughput results: PubChem BioAssay, National Center for Advancing Translational Sciences (NCATS)
TRPML1 ag – qHTS for Agonists of the Human Mucolipin Transient Receptor Potential 1 (TRPML1); Mucolipin-1 (Homo sapiens), Q9GZU1; TRPML1-expressing cells, Ca2+ dye fluorescence, FDSS; host cell line not named in the record; reference of the full effect not given here; activation, % (test concentration not listed); 0.12% of 410,000 active; AID 624414, 2012; in the data active = activation above about 50%; inconclusive = about 30% to 50%; inactive = below about 30%; also: 0% is about no effect; the text of the record puts the active cut at 80%
Target sequence (Q9GZU1 whole entry, looked up): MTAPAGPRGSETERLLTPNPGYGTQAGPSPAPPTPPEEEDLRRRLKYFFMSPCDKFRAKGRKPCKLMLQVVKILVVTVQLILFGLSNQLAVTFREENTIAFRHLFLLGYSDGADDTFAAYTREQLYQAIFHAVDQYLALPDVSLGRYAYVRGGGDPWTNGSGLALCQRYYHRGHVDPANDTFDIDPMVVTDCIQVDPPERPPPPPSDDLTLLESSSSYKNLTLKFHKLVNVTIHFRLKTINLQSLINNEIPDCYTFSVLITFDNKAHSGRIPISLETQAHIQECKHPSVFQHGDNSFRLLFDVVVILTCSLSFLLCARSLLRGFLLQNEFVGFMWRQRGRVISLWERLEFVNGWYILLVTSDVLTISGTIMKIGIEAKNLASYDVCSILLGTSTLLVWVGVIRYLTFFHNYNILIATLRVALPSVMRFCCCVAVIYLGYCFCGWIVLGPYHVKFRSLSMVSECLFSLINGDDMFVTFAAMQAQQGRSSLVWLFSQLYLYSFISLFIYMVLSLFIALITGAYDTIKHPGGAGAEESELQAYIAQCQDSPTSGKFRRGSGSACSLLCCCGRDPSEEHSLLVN
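Cells: TRPML1-DL, 1X Tet inducer, ~16 h at 37 degrees C/5% CO2. Dye: ABD Ca8 no-wash + quencher, 45-90 min RT. Read: 10 s baseline, compound add, 110 s agonist phase; 54-4 EC80 (4uM final), 110 s antagonist phase.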
TRPML1 inh – qHTS for Inhibitors of the Human Mucolipin Transient Receptor Potential 1 (TRPML1) | 0.02% of 390,000 active | TRPML1-inducible cells, Ca2+ dye fluorescence, FDSS; active compounds read low; inhibition of EC80 agonist-evoked calcium signal | activity change, negative = inhibition, % (no concentration beside the values) | AID 624415, 2012 | Mucolipin-1 (Homo sapiens), Q9GZU1; in the data active means activity change below about -50%; inconclusive means about -30% to -50%; inactive means above about -30%;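 also: stimulus is agonist 54-4 at its EC80 concentration; % is scaled to controls: 0 for no effect and ±100 for the full control effect; compound concentration not given in the record; the text of the record puts the active cut at -80%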
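Calcium fluorescence in TRPML1-DL cells induced overnight with Tet: a 110 s read after compound pin addition, then a 110 s antagonist read after challenge with 54-4 at 4 uM final (EC80).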
PINK1 expr mod – A Quantitative High throughput Screen to Identify Chemical Modulators of PINK1 Expression. PINK1 immunofluorescence, high-content cytometry, 24 h. 0.2% of 410,000 active. Potency, µM (top dose mostly 76.6 µM), without a hit: at the highest dose activation (PINK1 increase), usual class: activators; active = well fitted activation curve with a large enough effect; inconclusive = small, poorly fitted or top-dose-only effect; inactive = flat fitted curve, though single readings scatter; cell line not stated here;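 also: potency is read from the fitted curve at half-maximal effect; % of control where 0% means no effect; nearly all actives have a fitted effect of over 65% in size; a mitochondrial uncoupler was the plate control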
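Measures PINK1 amount and localization on or inside mitochondria by immunofluorescence. Stable cells get compounds at 5 concentrations for 24 hours before fixation and staining; CCCP controls included.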
D2 potentiator – Beta-Arrestin HTS for Positive Allosteric Modulators of the Human D2 Dopamine Receptor: Potentiators; 0.23% of 360,000 active; potentiation, % (test concentration not listed); DiscoveRx D2 beta-arrestin cells, luminescence, 90 min; 100% = 57 uM dopamine signal; active = potentiation of 50% or more; inconclusive = 30% to 50%; inactive = 30% or less;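 also: compound concentration not given in the record; tested on top of an EC20 dose of dopamine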
Target sequence (P14416 whole entry, looked up): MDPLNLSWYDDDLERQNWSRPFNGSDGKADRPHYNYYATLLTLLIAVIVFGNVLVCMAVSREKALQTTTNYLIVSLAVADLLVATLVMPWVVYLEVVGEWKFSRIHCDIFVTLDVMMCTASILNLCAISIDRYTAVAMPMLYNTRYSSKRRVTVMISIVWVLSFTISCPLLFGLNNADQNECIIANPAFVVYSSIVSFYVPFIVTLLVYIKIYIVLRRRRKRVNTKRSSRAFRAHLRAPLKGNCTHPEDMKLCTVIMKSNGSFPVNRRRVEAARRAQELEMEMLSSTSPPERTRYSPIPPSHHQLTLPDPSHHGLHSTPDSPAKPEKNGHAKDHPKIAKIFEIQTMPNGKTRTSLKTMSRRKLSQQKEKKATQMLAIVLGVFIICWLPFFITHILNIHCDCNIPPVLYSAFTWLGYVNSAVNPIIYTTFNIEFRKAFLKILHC
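D2 cells co-treated with compound plus 50 nM dopamine (EC20) for 90 min at 37 deg C to detect potentiation. Beta-arrestin recruitment was read as enzyme-fragment luminescence after 1 h at ambient temperature. Full response was set by 57 uM dopamine.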
D2 ag – Beta-Arrestin HTS for Positive Allosteric Modulators of the Human D2 Dopamine Receptor: Agonists; D(2) dopamine receptor (Homo sapiens), P14416; DiscoveRx PathHunter D2 beta-arrestin, luminescence, 90 min; 100% = 57 uM dopamine signal; activation, % (test concentration not listed); 0.084% of 360,000 active; AID 624465, 2012; in the data active = activation above about 40%; inconclusive = about 15% to 40%; inactive = below about 15%; also: compound concentration not given in the record; the text of the record calls up to 30% inactive
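Agonist mode: compounds alone added to overnight-plated D2 PathHunter cells for 90 min at 37 C, with 57 uM final dopamine (EC100) defining full response. Beta-arrestin recruitment detected by chemiluminescent reagent, read after 1 h at ambient temperature.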
Six1-Eya2 blk – qHTS Assay for Inhibitors of the Six1/Eya2 Interaction | Homeobox protein SIX1 (Homo sapiens) + Protein phosphatase EYA2 (Homo sapiens), … | AlphaScreen GST-Six1/His-Eya2 binding, biochemical; active compounds read low; control for the full effect not named in the record | activity change, % (concentration not given with the values) | 0.56% of 360,000 active; in the data active = activity change below about -65%; inconclusive = about -30% to -65%; inactive = above about -30%; also: % is scaled to controls: 0 for no effect and ±100 for the full control effect
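Compounds are tested against tagged Six1 and Eya2 proteins bridged by glutathione donor and nickel acceptor beads; after a one-hour incubation at 37 °C without light, AlphaScreen emission is recorded.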
* = called active by the depositor; ? = inconclusive; . = no result given; & = joins results of further samples; [ ] = remark or other dose.

SMILES	TRPML1 ag	TRPML1 inh	PINK1 expr mod	D2 potentiator	D2 ag	Six1-Eya2 blk
O=C(N/N=C/c1sc(=O)n(-c2ccccc2)c1Cl)c1ccccc1	1.2	-10	2.6%	1	-2.5	-1
CC(C)c1ccc(NC(=O)CN2C(=O)COc3ccc(S(=O)(=O)N4CCCCCC4)cc32)cc1	1.1	-8	3.1%	.	.	.
CC(C)(Oc1ccc(Cl)cc1)C(=O)Nc1nnc2n1CCS2	1.2	18	-4.3%	.	.	.
COC(=O)c1c(-c2ccccc2)csc1N	3.6	6	1.7%	-3	-4.1	-19
Cc1ccc(-c2cnco2)cc1	-0.4	48	0.3%	-19	-5.4	2
Cc1cc[n+](CCc2ccccc2)cc1C	1.4	-3	-2.6%	-5	12	1
OC(CN1CCC(Cc2ccccc2)CC1)c1ccccc1 (stereo not given)	.	.	-0.2%	-24	-2.5	?
CCOC(=O)C(NC(C)=O)C(=O)Nc1ccc(C)cc1C (stereo not given)	2.1	-24	-1.0%	-8	-1.6	7
O=C(NC(=S)Nc1ccccc1N1CCCCC1)c1ccccc1	0.0	3	9.4%	-11	-2.5	-2
CC1(C)CC(NC(=O)c2ccc(Cl)c(S(=O)(=O)N(Cc3ccccc3)c3ccccc3)c2)CC(C)(C)N1	2.5	22	-3.2%	-8	-1.8	-2
CCCCN(C)CCNC(=O)c1c[nH]c2ccc(S(=O)(=O)N(CC)CC)cc2c1=O	0.6	-3	1.9%	-24	-1.4	2
Cn1cnc(S(=O)(=O)N2CCC(C(=O)Nc3ccc(Cl)c(C(F)(F)F)c3)CC2)c1	1.5	5	4.8%	.	.	.
CCCNC(=O)CN1C(=O)NC(c2ccccc2)(c2ccccc2)C1=O	-0.2	-8	-0.3%	2	-1.2	6
COc1cc(C(=O)Nc2ccc(C)c(S(=O)(=O)N(C)C)c2)ccc1OCC(=O)N1CCOCC1	-0.8	-7	2.8%	19	-2.1	-1
O=C(CSc1nc2c(c(=O)[nH]1)CCCC2)Nc1cccc(O)c1	4.3	21	1.0%	.	.	.
CCc1ccc(N2CC(C)Cn3c2nc2c3c(=O)n(CC(=O)O)c(=O)n2C)cc1 (stereo not given)	-0.8	5	3.1%	.	.	.
CCOc1ccccc1CN1CCNC(=O)C1CC(=O)N(C)Cc1nonc1C (stereo not given)	0.7	-8	-1.2%	-1	-0.8	17
O=C(NCc1ccco1)c1nc(-c2ccc(F)cc2)no1	1.7	-18	0.6%	-9	-1.9	0
c1ccc2c(c1)nnn2-c1ncnc2sc3c(c12)CCCC3	0.6	-12	1.6%[38.3 µM]	-7	0.3	6
CCC1(C)NC(=O)N(CC(=O)NCC(=O)Nc2c(C)cc(C)cc2C)C1=O (stereo not given)	-0.6	-10	-0.2%	-2	-2.2	12
Cc1cccc(NS(=O)(=O)c2ccccc2)n1	-0.4	-2	4.2%[38.3 µM]	-2	-2.2	-2
CSc1nncn1/N=C/c1ccc2c(c1)OCO2	-0.6	14	4.9%[38.3 µM]	-12	-0.9	-4
Cc1ccc(-n2c(C)cc3c2CCCC3=O)cc1	0.2	4	-2.1%[38.3 µM]	-29	-1.6	-16
CCOC(=O)c1cc(C#N)c(N2CCN(c3ccc(OC)cc3)CC2)[nH]c1=O	0.0	18	0.2%	-1	-3.4	8
O=C(Nc1ccc(Cl)cc1C(=O)NCCN1CCOCC1)c1ccco1	-0.2	10	-1.9%[38.3 µM]	-20	-1.2	8

Copied from the list.
D2 potentiator, O=C(NCc1ccco1)c1nc(-c2ccc(F)cc2)no1 stands at -9
PINK1 expr mod, Cc1ccc(-n2c(C)cc3c2CCCC3=O)cc1 stands at -2.1%[38.3 µM]
TRPML1 inh, CCc1ccc(N2CC(C)Cn3c2nc2c3c(=O)n(CC(=O)O)c(=O)n2C)cc1 (stereo not given) stands at 5

Grouped by structure: the entries above containing an NH in an aromatic ring
SMILES	TRPML1 ag	TRPML1 inh	PINK1 expr mod	D2 potentiator	D2 ag	Six1-Eya2 blk
CCCCN(C)CCNC(=O)c1c[nH]c2ccc(S(=O)(=O)N(CC)CC)cc2c1=O	0.6	-3	1.9%	-24	-1.4	2
O=C(CSc1nc2c(c(=O)[nH]1)CCCC2)Nc1cccc(O)c1	4.3	21	1.0%	.	.	.
CCOC(=O)c1cc(C#N)c(N2CCN(c3ccc(OC)cc3)CC2)[nH]c1=O	0.0	18	0.2%	-1	-3.4	8

New compounds follow.
SMILES	TRPML1 ag	TRPML1 inh	PINK1 expr mod	D2 potentiator	D2 ag	Six1-Eya2 blk
CCCn1c(C)cc(/C=C(\C#N)C(=O)OCC(=O)Nc2cc(OC)c(OC)c(OC)c2)c1C	1.1	-3	2.5%	-16	-3.8	-7
CCOC(=O)Cn1c(=O)oc2cc(S(=O)(=O)N3CCn4c3nc3ccccc34)ccc21	-1.2	14	0.6%	-5	-1.5	-11
CCC(C)(C)NC(=O)C(c1cccc(OC)c1OC)N(Cc1ccccc1)C(=O)CCC(=O)Nc1cc(C)on1 (stereo not given)	1.8	-6	-1.0%	-2	1.4	5
CCOC(=O)c1c(N2CCCCC2)c2ccccc2[nH]c1=O	-0.1	1	-0.4%	-6	-3.9	-5
Cc1cccc(C(C)C)c1NC(=O)C(C)OC(=O)Cn1cnc2c1c(=O)n(C)c(=O)n2C (stereo not given)	0.3	1	0.5%	-2	-4.1	-3
COc1cc(Cl)c(CNC[C@H]2O[C@@H](n3cnc4c(=O)[nH]c(N)nc43)[C@H](O)[C@@H]2O)c(Cl)c1O	0.3	-3	5.5%	-1	-2.2	-6
Cc1csc(NC(=O)c2cc3c(s2)-c2ccccc2OC3)n1	-0.6	6	9.3%	-1	0.3	8
CCc1ccccc1NC(=O)C(=O)NCC(c1cccnc1)N1CCc2ccccc21 (stereo not given)	1.9	-7	-0.6%	.	.	.
O=C(NCCO)C(=O)Nc1cc2c3c(c1)CC(=O)N3CCC2	0.0	-1	-0.5%	-6	-0.2	9
COc1ccc(N2C(=O)C3CCCN3C2c2cccc(Br)c2)cc1 (stereo not given)	1.0	-20	2.8%	-4	-3.6	6
COC(=O)CNC(=O)c1nn(-c2cccc(OC)c2)c(=O)c2ccccc12	0.5	8	-0.8%	-10	-3.7	-1
Cc1cc2nc(C)c3c(n2n1)CCC3	2.1	-5	3.6%	9	1.7	-3
Cc1cc(=O)cc(C)n1-c1ccc(Br)cc1	-0.1	19	0.8%	1	1.9	1
c1ccc(C[C@H]2CN=C(Nc3ccccc3)N2CCC2CCCC2)cc1	-0.2	6	5.6%	-24	-4.7	1
COCCN1CC(=O)N(c2cccc(C)c2C)C(c2ccc(Cl)cc2)C1=O (stereo not given)	-0.1	0	0.3%	-7	-2.9	1
O=C(CNC(=O)c1ccc(=O)[nH]c1)Nc1ccc(F)c(F)c1	-0.2	0	1.7%	-9	-2.1	8
CCCOc1cccc(-c2nnc(NC(=O)c3ccco3)s2)c1	-0.2	1	9.6%	-4	-3.2	-4
O=C(CN(Cc1ccccc1)S(=O)(=O)c1ccccc1)N/N=C/c1ccccc1[N+](=O)[O-]	1.6	72	2.5%[38.3 µM]	1	-0.2	-13
CCCn1c(=O)[nH]c(=O)c2c1nc(-c1ccc(OC(F)F)cc1)n2CCN1CCOCC1	0.6	-13	-1.9%[38.3 µM]	-7	-0.6	-2
COc1ccc(OC)c(-n2nnnc2SCC(=O)Nc2cc(C)ccc2OC)c1	0.1	12	4.7%	4	0.6	-1
COc1ccc(C(=O)Nc2ccc3c4c(cccc24)CC3)cc1	1.9	-3	-0.9%[38.3 µM]	-9	1.3	-1
O=C(NNC(=O)C1C2C=CC(C2)C1C(=O)O)c1cc(Cl)ccc1O (stereo not given)	1.2	-13	2.6%	-12	-1.3	-17
CC1(C)CC(=O)C(C=NCCN2CCN(CC(=O)Nc3ccccc3)CC2)=C(O)C1	-0.4	3	-0.8%	-9	0.5	7
CCOC(=O)Cn1c(C(F)(F)F)nc2nc(Cl)c(Cl)nc21	3.3	-2	-5.2%	-3	0.6	0
CCOc1ccc(NS(=O)(=O)c2cc3c4c(c2)C(C)C(=O)N4CCC3)cc1 (stereo not given)	0.1	9	-1.1%	-11	-1.1	-6
(cont.)
SMILES	TRPML1 ag	TRPML1 inh	PINK1 expr mod	D2 potentiator	D2 ag	Six1-Eya2 blk
Cc1ccccc1CC(=O)Nc1ccc(S(=O)(=O)N2CCN(C)CC2)cc1	1.1	18	-0.2%	-4	-2.6	-3
CCOc1ccc(Oc2ccc(-c3nnc(-c4ccccc4)o3)cc2[N+](=O)[O-])cc1	-0.2	-8	5.2%	4	-0.5	-2
O=C(CN1CCCC1=O)NC1C2CC3CC(C2)CC1C3 (stereo not given)	2.0	-12	-1.2%	0	-6.7	-2
O=C(COc1ccc(Cl)cc1)Nc1nnc(S(=O)(=O)N2CCCCCC2)s1	-0.3&0.5	2&11	0.2%&1.9%	-5	-1.8	7
CCc1cccc(CC)c1N1C(=O)c2cc(N3CCOCC3)c([N+](=O)[O-])cc2C1=O	0.7	-26	2.9%	24	-1.0	-23
O=C(NCC(c1ccc(Cl)cc1)N1CCCCC1)c1ccccc1 (stereo not given)	1.0	21	-0.1%	.	.	.
CC(C)(C)c1cccc(/C=N/O)c1O	0.5	?	6.3%	15	-0.1	5
O=C(NCCCn1ccnc1)c1ccc(Br)c(S(=O)(=O)N2CCOCC2)c1	0.0	-5	0.8%	-5	-1.6	-3
CCN(CC)CCN1C(=O)C(=O)/C(=C(/O)c2ccc(F)cc2)C1c1ccncc1 (stereo not given)	0.5	-20	0.4%	-18	-2.8	1
O=S(=O)(Nc1cccc(-c2ccc(N3CCOCC3)nn2)c1)c1cc(Cl)ccc1Cl	0.2	28	2.7%	1	1.7	2
O=C(O)CNC(=O)/C=C/c1ccc(Cl)cc1Cl	0.4	-9	4.7%	-1	-6.7	5
CCN(CC)CCCN1C=C2C(=O)C(C)(OC(=O)C3CCCC3)C(=O)C=C2C=C1c1ccsc1 (stereo not given)	0.1	0	0.7%	11	7.4	-7
COc1ccc(NC(=O)N2CCN(S(C)(=O)=O)CC2)cc1	-0.1	-1	1.1%	-4	-0.8	12
CS(=O)(=O)c1ccc(S(=O)CC(=O)OCc2ccccc2)c([N+](=O)[O-])c1 (stereo not given)	0.0	4	2.8%	-12	7.4	-12
Cc1cc(C)c(NC(=O)C2=COCCO2)c(C)c1	0.0	-2	3.7%	-15	-1.1	7
NS(=O)(=O)c1ccc(CCNC(=O)c2ccncc2)cc1	0.9	-13	-2.2%	-7	4.0	-2
O=C(CSc1nnc(NC(=O)c2c(F)cccc2F)s1)Nc1ccccc1F	-1.3	-4	1.2%	-4	4.0	10
Cn1c(SCc2cccc(F)c2)nc2c([nH]c3ccccc32)c1=O	1.1	6	0.2%	.	.	.
COc1cc(-c2nc3n(n2)C(c2ccncc2)C(C(N)=O)=C(C)N3)cc(OC)c1OC (stereo not given)	-0.1	6	2.0%	7	-3.5	-1
